Mtb H37Rv – Confirmatory growth inhibition assay against Mycobacterium tuberculosis H37Rv, potency (AID 1949); actives 1.6% (n = 100,000); inhibition, % at 10 µg/mL, or IC50 in µg/mL where a hit was titrated; most inactive calls were filed without a number and no value below 0 was filed;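 active = confirmed in a dose series; inconclusive = about 50% or more but not retested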;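 note: bacteria grown 7 days with compound before Alamar blue readout; 0% = untreated bacteria and 100% = reference antibiotic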
* hit, by the source's call; i = inactive; ? = inconclusive. This is a subset, so the mix of outcomes need not match the whole.

canonical_smiles,Mtb H37Rv
Cc1ccc(C(=O)Nc2ccccc2C(=O)Nc2ccccc2C)cc1,i
O=C(Nc1ccc2oc(=O)ccc2c1)c1ccc([N+](=O)[O-])cc1Cl,i
COc1cc(NC(=S)NCCC(c2ccccc2)c2ccccc2)cc(OC)c1,5%
CC1(C)Cc2c(c(N3CCOCC3)nc3sc4c(=O)[nH]nnc4c23)CO1,i
CCN(CC)C(=S)NC(=O)c1ccc(OC)c(Br)c1,?
Cc1cc(O)ccc1Nc1nc(-c2ccncc2)cs1,0%
COc1cc(O)c2c(c1)OC(C)(C)CC2=O,i
O=C(COc1ccc(C(=O)NCc2ccccc2)cc1)Nc1ccccc1F,21%
CCOC(=O)N1CCN(C(=O)c2cc(Cl)ccc2Cl)CC1,i
Cc1cc(NC(=O)C2C3C=CC(C3)C2C(=O)O)ccc1NC(=O)c1ccccc1 (centres undefined),i
Cc1cccc(NC(=O)c2cccc(Cl)c2Cl)c1C,i
COc1cc(C2C(C(=O)N3CCCCC3)=C(C)NC3=C2C(=O)CCC3)ccc1O (centres undefined),0%
NC(=O)C1CC(=O)N(c2ccc(OCc3c(F)cccc3Cl)cc2)C1 (centres undefined),i
CN1CCN(c2c(N)c(=O)oc3ccccc23)CC1,i
O=C(c1cnn2c(C(F)F)cc(-c3ccccc3)nc12)N1CCCCCC1,i

More records follow:
canonical_smiles,Mtb H37Rv
Cc1ccccc1OCC(=O)Nc1ccccc1N1CCOCC1,i
O=C1OCc2cc(NC(=S)NC(=O)c3cccc4ccccc34)ccc21,i
Cc1cc(C)c(NC(=O)CN(c2ccccc2F)S(=O)(=O)c2ccccc2)c(C)c1,i
CC(=O)n1c(SC(C)C(=O)Nc2cccc3ccccc23)nc2ccccc21 (centres undefined),i
CC(C)(C)c1ccc(S(=O)(=O)CCSc2nc3ccccc3s2)cc1,i
O=C(Cc1ccccc1)N1CCC(N2CCCC2)CC1,4%
O=C1CCCN1CCC1CCN(C2CC(=O)N(c3ccc(Cl)cc3)C2=O)CC1 (centres undefined),i
O=C(CN1C(=O)c2ccccc2C1=O)Oc1ccc(-c2ccccc2)cc1Br,i
O=S(=O)(c1ccccc1)N1CCN(S(=O)(=O)c2ccccc2)CC1,i
Fc1ccc(-n2c(SCCOc3ccccc3Cl)nnc2-c2ccncc2)cc1,i
COc1ccccc1OCC(=O)Nc1ccc(Br)cc1C(=O)O,i
Cc1cccc(C(C)(C)C)c1OCCNC1CCCC1,i
O=C(Nc1ccc([N+](=O)[O-])cc1)C1C2C3CCC(C3)C12 (centres undefined),?
O=C(Cc1ccccc1)Nc1ccc(NC(=S)NC(=O)c2ccccc2Br)cc1,i
O=C(O)C1CCCCC1C(=O)Nc1ccc(Br)cc1F (centres undefined),i

Random excerpt: five entries already listed, in no set order.
canonical_smiles,Mtb H37Rv
O=C1CCCN1CCC1CCN(C2CC(=O)N(c3ccc(Cl)cc3)C2=O)CC1 (centres undefined),i
CC1(C)Cc2c(c(N3CCOCC3)nc3sc4c(=O)[nH]nnc4c23)CO1,i
O=C(Cc1ccccc1)N1CCC(N2CCCC2)CC1,4%
CC(C)(C)c1ccc(S(=O)(=O)CCSc2nc3ccccc3s2)cc1,i
O=C1OCc2cc(NC(=S)NC(=O)c3cccc4ccccc34)ccc21,i

(listing goes on)
canonical_smiles,Mtb H37Rv
CC1(C)Cc2c(sc(NC(=O)C3CC(Cl)=CCC3C(=O)O)c2C#N)CO1 (centres undefined),i
CCOc1cccc(NC(=O)CC2C(=O)N(C)C(=S)N2Cc2ccccc2Cl)c1 (centres undefined),7%
Cc1ccccc1C1C(/C=C2\SC(=S)NC2=O)=C(c2ccccc2)Oc2ccccc21 (centres undefined),4%
O=C(Nc1cccc(F)c1)c1cc2cc(Br)ccc2oc1=O,i
O=C(CCC1CCCCC1)Nc1ccc2ccccc2c1,?
CC(C)Oc1ccc(NC(=O)Nc2ccc(Cl)c(Cl)c2)cc1,i
N#CC1=C(SCC(=O)NC23CC4CC(CC(C4)C2)C3)NC(=O)C(C#N)C12CCCCC2 (centres undefined),4%
CCOc1ccc(OCc2ccc(C(=O)N(CC)CC)cc2)cc1,i
Cc1cc(Cl)ccc1OCC(=O)N1C(C)CCCC1C (centres undefined),i
COc1cc(C#N)cc(Cl)c1OCC(=O)c1ccccc1,0%
C=CCn1c(SCC(=O)NCC2CCCO2)nc2scc(-c3ccccc3)c2c1=O (centres undefined),i
CCc1cc(C)cc(OCc2n[nH]c(=S)n2-c2ccccc2)c1,3%
O=C1CN(O)C(c2ccccc2)=c2cc(Br)ccc2=N1,i
O=c1cc(-c2ccccc2)nc(-c2ccccc2)o1,i
C/C=C/c1ccc(OCCCNC2CCCC2)c(OC)c1,i

Seven compounds out of the list, sorted by molecular weight, lowest first.
canonical_smiles,Mtb H37Rv
O=c1cc(-c2ccccc2)nc(-c2ccccc2)o1,i
O=C(CCC1CCCCC1)Nc1ccc2ccccc2c1,?
C/C=C/c1ccc(OCCCNC2CCCC2)c(OC)c1,i
CCOc1ccc(OCc2ccc(C(=O)N(CC)CC)cc2)cc1,i
O=C(Nc1cccc(F)c1)c1cc2cc(Br)ccc2oc1=O,i
CCOc1cccc(NC(=O)CC2C(=O)N(C)C(=S)N2Cc2ccccc2Cl)c1 (centres undefined),7%
Cc1ccccc1C1C(/C=C2\SC(=S)NC2=O)=C(c2ccccc2)Oc2ccccc21 (centres undefined),4%

Next section
canonical_smiles,Mtb H37Rv
CNC(=O)c1ccc([N+](=O)[O-])cc1Cl,i
O=C(CSc1ncn(-c2ccccc2)n1)Nc1ccc(F)c(Cl)c1,i
CCOc1ccccc1C(=O)NCc1cccnc1,4%
c1ccc(-c2nn3c(Cn4cnc5ccccc54)nnc3s2)nc1,i
O=C1N(c2ccc(Br)cc2)C2CS(=O)(=O)CC2N1c1ccc([N+](=O)[O-])cc1 (centres undefined),6%
CCOc1ccccc1CNCc1cccnc1,i
CCOc1ccc2nc(SCC(=O)Nc3cccc(C(C)=O)c3)sc2c1,2%
COc1cc(S(=O)(=O)N2CCN(c3ccc(C)cc3C)CC2)c(C)cc1C,i
CC(C)(C)CC(=O)Nc1cccc(C#N)c1,i
CC(=O)Nc1cccc(OCc2ccc(C(=O)c3ccccc3)cc2)c1,12%
COc1ccc(N2CCN(C(=S)c3cccc(Br)c3)CC2)cc1,6%
O=C(Nc1ccc(Cl)cc1C(F)(F)F)c1ccccc1Cl,0%
Cc1cc(Cl)ccc1N(CC(=O)NC1CCCCCC1)S(C)(=O)=O,4%
CCOCCCNC(=O)c1ccc(-c2ccccc2)cc1,i
COc1ccc(CCNC(=O)c2ccc(C(C)(C)C)cc2)cc1OC,5%

(listing goes on)
canonical_smiles,Mtb H37Rv
Cc1ccc(S(=O)(=O)c2nc(S(=O)(=O)c3ccc(Cl)cc3)sc2N(C)C)cc1,i
CC1CCc2cc(F)ccc2N1C(=O)c1ccco1 (centres undefined),i
COC(=O)c1ccc(Cl)c(NC(=O)CSCc2ccccc2)c1,i
O=[N+]([O-])c1ccc(CSc2nnc3c4ccccc4n(Cc4ccccc4)c3n2)cc1,i
CCN(CC)c1ccc(NC(=O)c2ccc(OC)cc2OC)cc1,19%
O=C(CSc1ncnc2sc3c(c12)CCC3)N1CCOCC1,0%
CCCOc1ccc(S(=O)(=O)n2cc(Br)c(=O)[nH]c2=O)cc1,2%
COc1ccc(CSc2nnc3c(n2)[nH]c2ccccc23)cc1Br,1%
Cc1cccc(OCCCn2cnc3ccccc32)c1,38%
Cc1noc(COc2ccc(OCc3nc(C)no3)cc2)n1,11%
CCn1c(SCC(=O)Nc2ccc(I)cc2)nnc1-c1ccccc1C,i
O=S(=O)(Nc1ccc(Br)cc1F)c1cccc(Cl)c1,i
CCN(CC)Cc1c(O)ccc2c(C#N)c(C)n(-c3ccccc3)c12,i
O=C(CCNS(=O)(=O)c1ccc(Cl)cc1)Nc1ccncc1,i
CCOC(=O)N1CCC2(CC1)C(C#N)=C(N)Oc1c2c(C)nn1-c1cccc(Cl)c1,1%

Other structures follow:
canonical_smiles,Mtb H37Rv
COc1ccc(NC(=O)CSc2nc(C)cc(C)n2)cc1,i
CCc1ccccc1NC(=O)COc1ccc(S(=O)(=O)NCC(C)C)cc1Cl,i
Cc1cc(Cl)ccc1NC(=O)CNS(=O)(=O)c1ccccc1,i
O=C(NCCc1ccccc1)C1CCC(Cn2c(=S)[nH]c3ccccc3c2=O)CC1 (centres undefined),1%
Cc1nnc(NC(=O)C(C)(C)Oc2ccc(Cl)cc2)s1,i
COc1ccc(C(=O)Nc2nc3n(n2)C(c2ccccc2)C=C(C)N3)cc1 (centres undefined),i
CCCN1C(=O)c2ccc(C(=O)Nc3cc(C(=O)O)cc(C(=O)O)c3)cc2C1=O,1%
CC1=C(C(=O)Nc2ccccc2)C(c2ccc(F)cc2)NC(=S)N1 (centres undefined),i
Fc1ccc(CCNCc2c[nH]c3ccccc23)cc1,i
COc1ccccc1CNC(=O)CN(Cc1ccc(Cl)cc1)S(=O)(=O)c1ccc(C)cc1,i
CCOC(=O)N1CCN(CC(=O)Nc2ccc(OC)cc2)CC1,i
COc1cc(C(=O)Nc2nnc(C(F)(F)F)s2)c([N+](=O)[O-])cc1OC,i
COc1ccc(S(=O)(=O)n2c(C)nc3ccccc32)cc1C,i
Cn1nnnc1SCC(=O)Nc1ccc2c(c1)OCCO2,i
Cc1cccc(C)c1OCc1n[nH]c(=S)o1,i

(more compounds)
canonical_smiles,Mtb H37Rv
CC(=O)Nc1cc2c(cc1C(=O)c1ccccc1)OCCO2,i
Cc1cc(C(=O)NCC2(c3ccccc3)CCOCC2)oc1C,i
COc1cccc(CNc2nc3ccccc3n2C)c1,i
O=C(Nc1ccc(Cl)c(F)c1)C1C2C3CCC(C3)C12 (centres undefined),?
COc1ccc(NC(=O)C2=C(C)Nc3ncnn3C2c2cccc([N+](=O)[O-])c2)cc1 (centres undefined),i
C=CCNC(=S)Nc1c(C)nn(CC)c1C,i
COc1cc(Br)cc(C2NC(=S)NC(C)=C2C(N)=O)c1OC (centres undefined),i
Cc1ccc(S(=O)(=O)N2CCCC2C(=O)Nc2nc3c(s2)CCCC3)cc1 (centres undefined),i
Cc1ccnc(NC(=O)Cc2ccc(F)cc2)n1,i
NC(=O)C1CCN(CC(=O)Nc2ccccc2[N+](=O)[O-])CC1,i
CCc1nc2ccccc2n1CCC(=O)O,i
NS(=O)(=O)c1ccc(CNC(=S)Nc2ccc(Nc3ccccc3)cc2)cc1,1%
O=C(NC1(C(F)(F)F)NC(=O)N(C2CCCCC2)C1=O)c1cccs1 (centres undefined),i
COc1ccc(N(Cc2ccccc2)C(=O)c2ccccc2-c2ccccc2C(=O)O)cc1,i
Clc1ccccc1Cn1nnc(-c2cccs2)n1,i

(further entries)
canonical_smiles,Mtb H37Rv
CCOc1ccc(NS(=O)(=O)c2ccc(NS(=O)(=O)c3cccs3)cc2)cc1,i
O=C(O)c1ccc(F)c(S(=O)(=O)N2CCCCC2)c1,i
CCCOc1ccc(S(=O)(=O)NCc2ccncc2)c2ccccc12,4%
Cc1c(CC(=O)N2CCOCC2)c(=O)oc2cc(O)ccc12,i
Cc1cccc(S(=O)(=O)N2CCN(c3ccccc3F)CC2)c1,i
O=S(=O)(c1cccc2nsnc12)N1CCN(C23CC4CC(CC(C4)C2)C3)CC1,i
Cc1ccc(C(=O)Nc2cccc(NC(=O)c3ccc(C)cc3)c2)cc1,i
CCC(CC)c1nnc(NC(=O)Cc2cccs2)s1,3%
O=C(CN1C(=O)c2ccccc2C1=O)Nc1ccccc1Sc1ccccc1,i
Cc1cc2nc(NC(=S)NCc3ccco3)sc2cc1C,24%
CC(C)(C)C(=O)Nc1ccc(N2CCOCC2)cc1,i
Cc1cc(C)c(NC(=O)CN(c2cccc3ccccc23)S(C)(=O)=O)c(C)c1,i
O=C(Nc1ccc2c(c1)OCO2)Nc1cnccn1,0%
CCCCC(=O)Nc1ncc(Br)s1,9%
Cc1nc(NC(=O)c2ccc([N+](=O)[O-])cc2)ccc1Br,i

(list continues)
canonical_smiles,Mtb H37Rv
OC(COc1ccc(Cl)cc1Cl)CN1CCN(c2ccccn2)CC1 (centres undefined),10%
COc1ccc(/C(N)=N/OC(=O)COc2ccc(Br)cc2C)cc1,3%
O=S(=O)(c1ccc(Oc2ccccc2Cl)cc1)N1CCN(c2ccccc2)CC1,i
Cc1ccc2oc(C(=O)Nc3c(C)n(C)n(-c4ccccc4)c3=O)c(C)c2c1,i
O=S(=O)(Nc1ccccc1C(F)(F)F)c1ccc(Br)s1,i
C=CCn1c(COc2ccccc2)nnc1SCC(=O)N1CCc2ccccc21,i
Cc1ccccc1OCCCn1c(CCCO)nc2ccccc21,0%
COc1cc(C(=O)Nc2ccc3oc(-c4ccccc4)nc3c2)cc(OC)c1OC,i
CCn1c(CC(=O)Nc2cccc(OC)c2)nnc1SCC(=O)Nc1c(F)cc(F)cc1Br,i
C=CCOn1c(=O)c(-c2cccc([N+](=O)[O-])c2)[n+]([O-])c2ccccc21,i
CC(Oc1ccc(Br)cc1)C(=O)N1CCc2ccccc2C1 (centres undefined),i
COc1cc(Cl)c(C2NC(=O)NC(c3ccccc3)=C2C(C)=O)cc1OC (centres undefined),i
COC(=O)c1cccc(NC(=S)Nc2cccc(Cl)c2Cl)c1,i
COC(=O)c1cn(C(=O)COc2cc(C)cc(C)c2)c2ccccc12,i
CCOC(=O)c1ccc(COC(=O)c2ccccc2NC)cc1,i

Next section:
canonical_smiles,Mtb H37Rv
CC1Cc2ccccc2N1S(=O)(=O)c1ccc2c3c(cccc13)C(=O)N2 (centres undefined),i
Cc1cccc(NC(=O)c2ccc(C(=O)Nc3cccc(C)c3)nc2)c1,i
CCOCCC(=O)Nc1nnc(CCc2ccccc2)s1,i
CC(C)(C)C(=O)COc1ccc2c(C(F)(F)F)cc(=O)oc2c1,i
CCOc1ccc(/C=C/c2nc(=O)c3ccccc3o2)cc1,i

From PubChem BioAssay
